Screening results (PubChem BioAssay)
rRNA inh HTS: inhibitors of bacterial rRNA selective over humanized ribosomes. E. coli WT GFP vs humanized-ribosome RFP mutants, fluorescence, 24 h; hits give low values; DMSO median 0, no signal -100. GFP signal change (wild-type ribosome), % (test concentration not listed). hit rate 1.6% among 350,000. AID 720706;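 active = significant combined selectivity score with lowered wild-type GFP, culture density cut under 30%, mutant RFP and density less affected; inactive = any of these conditions unmet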; also: one replicate is shown; some compounds called inactive have numbers as strong as hits
Beta2AR agonist: human beta-2 adrenergic receptor agonism by FAP; P07550; Am2.2-beta2AR cells, FAP receptor internalization, flow cytometry; reference of the scale not given here; response, % (concentration not given with the values); hit rate 0.43% among 340,000;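 active = response above a set limit, near 3 SD of response in nonfluorescent compounds, cut at about 42% in these data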;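 also: stock transfer was 100 nL into about 11 µL; a reference agonist was the positive control; negative values mostly stem from fluorescent compounds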
UCH37 inh: human UCH37 deubiquitinating enzyme inhibition. purified proteasome/UCH37, Ub-AMC cleavage fluorescence. inhibition, % (no concentration beside the values). hit rate 0.33% among 330,000. AID 588478;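 active = mean of two replicates above 20%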;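 also: 0% = compound-free wells with enzyme and 100% = wells lacking proteasome; stock transfer was 100 nL into about 20 µL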
Target sequence (Q9Y5K5 whole entry, looked up): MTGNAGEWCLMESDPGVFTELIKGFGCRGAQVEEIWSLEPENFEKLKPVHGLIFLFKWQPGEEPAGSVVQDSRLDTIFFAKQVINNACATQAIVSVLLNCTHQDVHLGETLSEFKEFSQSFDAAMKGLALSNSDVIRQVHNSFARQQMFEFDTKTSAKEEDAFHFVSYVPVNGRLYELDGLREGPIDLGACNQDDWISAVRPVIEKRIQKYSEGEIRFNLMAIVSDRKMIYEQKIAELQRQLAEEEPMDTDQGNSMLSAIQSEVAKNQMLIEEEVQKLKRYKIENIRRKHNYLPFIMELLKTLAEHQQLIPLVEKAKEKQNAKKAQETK
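System: Proteasome-associated human UCH37 deubiquitinase; Input: 0.15 nM proteasome in added enzyme buffer; Also added: Ub-AMC substrate from 1 µM stock; Incubation: 30 min compound-proteasome preincubation then 25 min substrate reaction, room temperature; Detection: fluorescence, ex 355 nm, em 460 nm; Read-out: % inhibition of Ub-AMC cleavage fluorescence; Benchmarks: no-proteasome and no-compound wells.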
HNF4A DNA FP: change in binding of human HNF4 alpha to DNA. P41235. HNF4a-FITC DNA binding, fluorescence polarization, 1 h. activity change, % at 10 µM. hit rate 0.3% among 360,000. AID 1224865; in the data active = activity change above about 30%, passing the limit was not always enough;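 also: controls were the assay level and a saturating level of protein; the project sought stronger binding though the title names inhibitors; some compounds called inactive have numbers as strong as hits; positive values seem to mean higher polarization but the record does not say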
Target sequence (P41235 whole entry, looked up): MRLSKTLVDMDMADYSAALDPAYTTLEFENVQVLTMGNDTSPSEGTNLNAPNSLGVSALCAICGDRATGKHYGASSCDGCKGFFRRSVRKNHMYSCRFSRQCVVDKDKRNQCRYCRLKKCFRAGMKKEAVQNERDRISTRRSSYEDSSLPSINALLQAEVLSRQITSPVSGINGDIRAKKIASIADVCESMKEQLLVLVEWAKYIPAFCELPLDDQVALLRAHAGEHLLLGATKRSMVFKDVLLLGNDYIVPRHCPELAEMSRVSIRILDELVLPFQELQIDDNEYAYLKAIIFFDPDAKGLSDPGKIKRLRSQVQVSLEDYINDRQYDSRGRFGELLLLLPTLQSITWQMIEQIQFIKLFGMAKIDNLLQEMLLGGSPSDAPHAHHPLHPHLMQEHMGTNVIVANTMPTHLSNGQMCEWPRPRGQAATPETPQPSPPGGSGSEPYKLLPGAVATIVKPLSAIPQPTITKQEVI
FGF22 binding: FGF22 (human) thermal shift binding; calls only at 9.99 µM; AID 651658; recombinant FGF22 thermal shift, SYPRO orange fluorescence; percent of sucrose octasulfate shift, DMSO zero; hit rate 1.5% among 340,000;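 active = melting point raised past a set limit in the mean and every replicate; three in four hits are not shown here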
Target sequence (Q9HCT0 whole entry, looked up): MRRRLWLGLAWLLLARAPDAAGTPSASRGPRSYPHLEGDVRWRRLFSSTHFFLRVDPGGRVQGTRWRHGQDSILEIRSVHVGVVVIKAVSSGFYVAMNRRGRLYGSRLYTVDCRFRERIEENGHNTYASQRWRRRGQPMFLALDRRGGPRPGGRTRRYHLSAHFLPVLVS
Ecoli growth: blocks Escherichia coli growth. OD600, 23 h; hits give low values. OD600 absorbance (concentration not given with the values). hit rate 0.21% among 330,000. AID 1053175;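 active = OD600 absorbance below the run mean of sample wells minus 3.6 SD, in any replicate, cut at about 0.56 in these data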;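 also: stock transfer was 300 nL into about 60 µL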
ALR inh: human ALR oxidase inhibition via reduced H2O2; inhibition, % (no concentration beside the values); purified ALR, DTT oxidation, H2O2 HRP-luminol luminescence; hit rate 3.8% among 290,000; P55789; AID 485317;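 active = mean and each replicate at 75% or more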;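 also: stock transfer was 7.5 nL into about 7.5 µL; 0% = neutral wells and 100% = wells with inactivated enzyme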
rRNA inh HTS OD600: further read-out of rRNA inh HTS, marked with its call; OD600 change, %; measured here: OD600 growth;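 optical density of the mix in the first replicate; 0 = DMSO median and -100 = no signal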
rRNA inh HTS RFP: also measured in rRNA inh HTS; calls as there; RFP signal change, %; measured here: RFP humanized mutant strains;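 first replicate; 0 = DMSO median and -100 = no signal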
The depositor's hits bear a star; & = joins results of further samples. The list is partial; count on the stated rates, not on these rows.

Screening O=C(O)c1ccc2nc3c(nc2c1)-c1ccccc1C3=O returned rRNA inh HTS -38, Beta2AR agonist -7, UCH37 inh 2.1, HNF4A DNA FP -8.2, FGF22 binding inactive, Ecoli growth 0.73, ALR inh -6, rRNA inh HTS OD600 -56 and rRNA inh HTS RFP -2.7.
For NC(=O)c1ccsc1NC(=O)c1cc(=O)c2ccccc2o1 the results were rRNA inh HTS -1, Beta2AR agonist -5, HNF4A DNA FP -0.8, FGF22 binding inactive, ALR inh 0, rRNA inh HTS OD600 -5 and rRNA inh HTS RFP 6.5.
`C=CCC1(CC=C)CCCN1C(=O)c1cc(COc2cccc(OC)c2)on1` gave rRNA inh HTS -17, Beta2AR agonist 7, UCH37 inh 4.3, HNF4A DNA FP -0.5, FGF22 binding inactive, Ecoli growth 0.72, ALR inh -23, rRNA inh HTS OD600 -13 and rRNA inh HTS RFP 0.6.
`Cc1ccc(Nc2nc(/N=C/N(C)C)n[nH]2)cc1C` gave rRNA inh HTS 6, Beta2AR agonist 0, HNF4A DNA FP -1.1, FGF22 binding inactive, ALR inh 98*, rRNA inh HTS OD600 2 and rRNA inh HTS RFP -2.0.
Screening COc1ccc(/C=N/NC(=O)c2ccc(N3CCCC3=O)cc2)cc1 returned rRNA inh HTS 3, Beta2AR agonist -7, HNF4A DNA FP -0.8, FGF22 binding inactive, ALR inh -8, rRNA inh HTS OD600 10 and rRNA inh HTS RFP 0.6.
`O=C(CNC(=O)c1cccc(F)c1)N/N=C/c1ccc(O)c([N+](=O)[O-])c1` gave rRNA inh HTS 11, Beta2AR agonist -3, HNF4A DNA FP 2.0, FGF22 binding inactive, ALR inh 29, rRNA inh HTS OD600 13 and rRNA inh HTS RFP 2.1.
`O=C(c1ncc[nH]1)c1ccco1` gave Beta2AR agonist 1, UCH37 inh 7.0, HNF4A DNA FP 3.8, Ecoli growth 0.7 and ALR inh 2.
`O=C(CN1C(=O)CCC1=O)Nc1cccc2c1C(=O)NC2=O` gave rRNA inh HTS 5, Beta2AR agonist 3, UCH37 inh -59, HNF4A DNA FP 3.2, FGF22 binding inactive, Ecoli growth 0.64, ALR inh -9, rRNA inh HTS OD600 20 and rRNA inh HTS RFP 0.1.
`O=C(CN1CCN(Cc2ccccc2)CC1)Nc1ccc(N2CCOCC2)cc1` gave rRNA inh HTS 19, Beta2AR agonist 50*, UCH37 inh 4.1, HNF4A DNA FP 0.3, FGF22 binding inactive, Ecoli growth 0.66, ALR inh 23, rRNA inh HTS OD600 18 and rRNA inh HTS RFP 0.2.
Screening CCN1C(=O)c2ccccc2S(=O)(=O)c2ccc(C(=O)NCCOC)cc21 returned rRNA inh HTS 11, Beta2AR agonist 24, UCH37 inh 5.9, HNF4A DNA FP 5.3, FGF22 binding inactive, Ecoli growth 0.69, ALR inh 0, rRNA inh HTS OD600 4 and rRNA inh HTS RFP -1.1.
Screening Cc1ccc(OC(C)C(=O)Nc2ccc(F)cc2)c([N+](=O)[O-])n1 (stereo unspecified) returned rRNA inh HTS -8, Beta2AR agonist 0, UCH37 inh 3.5, HNF4A DNA FP 3.7, FGF22 binding inactive, Ecoli growth 0.66, ALR inh -1, rRNA inh HTS OD600 0 and rRNA inh HTS RFP -2.2.
`Cc1cc(O)c(-c2cc(C(=O)NCc3ccc4c(c3)OCO4)[nH]n2)cc1C` gave rRNA inh HTS 2, Beta2AR agonist 8, UCH37 inh 4.8, HNF4A DNA FP -0.8, Ecoli growth 0.7, ALR inh -5, rRNA inh HTS OD600 11 and rRNA inh HTS RFP -1.6.
`NC(N)=NC(=O)c1nc(Cl)c(N)nc1N` gave rRNA inh HTS 5&9, Beta2AR agonist -3&1&-12, UCH37 inh -31&-29&-26, HNF4A DNA FP -1.7&-1.4&0.7, FGF22 binding inactive, Ecoli growth 0.68&0.72&0.66, ALR inh -13&2&-3, rRNA inh HTS OD600 0&22 and rRNA inh HTS RFP -3.4&7.8.
COc1ccc(NS(=O)(=O)c2cn(C)cn2)c(OC)c1 was read as rRNA inh HTS 2, Beta2AR agonist 1, HNF4A DNA FP -3.6, FGF22 binding inactive, ALR inh -4, rRNA inh HTS OD600 4 and rRNA inh HTS RFP -2.4.
For Cc1cc(C(=O)NNC(=O)Nc2ccccc2)no1 the results were rRNA inh HTS 26, Beta2AR agonist -5, UCH37 inh 0.0, HNF4A DNA FP -1.1, FGF22 binding inactive, Ecoli growth 0.71, ALR inh 28, rRNA inh HTS OD600 8 and rRNA inh HTS RFP 5.4.
Screening CC(C)(C)SCCNS(=O)(=O)c1ccc(C#N)cc1 returned rRNA inh HTS 4, Beta2AR agonist -4, UCH37 inh 4.1, HNF4A DNA FP 5.4, FGF22 binding inactive, Ecoli growth 0.69, ALR inh 2, rRNA inh HTS OD600 3 and rRNA inh HTS RFP 3.1.
CC(C)(C)NC(=O)c1ccccc1-c1nc(-c2ccccc2Cl)no1 was read as Beta2AR agonist 0, UCH37 inh 0.4, HNF4A DNA FP -3.3 and Ecoli growth 0.71.
CN(C)c1ncnc2c1ncn2-c1ccccc1 was read as rRNA inh HTS 6, Beta2AR agonist 1, UCH37 inh 1.8, HNF4A DNA FP -1.3, FGF22 binding inactive, Ecoli growth 0.69, rRNA inh HTS OD600 8 and rRNA inh HTS RFP 1.1.
Screening Cc1ccccc1CNc1nnnn1C returned rRNA inh HTS 12, Beta2AR agonist -2, UCH37 inh 1.9, HNF4A DNA FP -3.1, FGF22 binding inactive, Ecoli growth 0.71, ALR inh -8, rRNA inh HTS OD600 -2 and rRNA inh HTS RFP -0.7.
Screening CC1CCc2cc(F)ccc2N1C(=O)c1cnc2sccn2c1=O (stereo unspecified) returned rRNA inh HTS -6, Beta2AR agonist 6, UCH37 inh 6.7, HNF4A DNA FP 1.5, FGF22 binding inactive, Ecoli growth 0.7, ALR inh -38, rRNA inh HTS OD600 -8 and rRNA inh HTS RFP -8.8.

Entries listed so far containing fluorine (three):
`O=C(CNC(=O)c1cccc(F)c1)N/N=C/c1ccc(O)c([N+](=O)[O-])c1` gave rRNA inh HTS 11, Beta2AR agonist -3, HNF4A DNA FP 2.0, FGF22 binding inactive, ALR inh 29, rRNA inh HTS OD600 13 and rRNA inh HTS RFP 2.1.
Screening Cc1ccc(OC(C)C(=O)Nc2ccc(F)cc2)c([N+](=O)[O-])n1 (stereo unspecified) returned rRNA inh HTS -8, Beta2AR agonist 0, UCH37 inh 3.5, HNF4A DNA FP 3.7, FGF22 binding inactive, Ecoli growth 0.66, ALR inh -1, rRNA inh HTS OD600 0 and rRNA inh HTS RFP -2.2.
Screening CC1CCc2cc(F)ccc2N1C(=O)c1cnc2sccn2c1=O (stereo unspecified) returned rRNA inh HTS -6, Beta2AR agonist 6, UCH37 inh 6.7, HNF4A DNA FP 1.5, FGF22 binding inactive, Ecoli growth 0.7, ALR inh -38, rRNA inh HTS OD600 -8 and rRNA inh HTS RFP -8.8.

The listing continues.
`COC(=O)C(C)N(C(=O)c1ccc(C(=O)c2ccccc2)cc1)c1c(C)cccc1C` (stereo unspecified) gave Beta2AR agonist -10, UCH37 inh 2.9, HNF4A DNA FP 0.6, Ecoli growth 0.75 and ALR inh -25.
Screening C[C@@H]1CC[C@]2(C(=O)O)CC[C@]3(C)C(=CCC4[C@]56CC[C@@](O)(OC5)C(C)(C)C6CC[C@]43C)C2[C@H]1C (stereo partly specified) returned Beta2AR agonist 3, UCH37 inh 5.8, HNF4A DNA FP 9.0 and Ecoli growth 0.79.
COc1ccc(S(=O)(=O)CCC(=O)N2CCN(c3ccc(C(C)=O)cc3)CC2)cc1 was read as rRNA inh HTS -5, Beta2AR agonist -2, UCH37 inh 4.7, HNF4A DNA FP 13, FGF22 binding inactive, Ecoli growth 0.67, ALR inh -4, rRNA inh HTS OD600 0 and rRNA inh HTS RFP -0.9.
Screening C/C=C/c1ccc(OC)c(OC(C)=O)c1 returned Beta2AR agonist 1, UCH37 inh 0.2, HNF4A DNA FP 3.7 and Ecoli growth 0.75.
`CN(CC(=O)Nc1ccccc1Br)C(=O)c1ccccc1OCc1ccc(Cl)cc1` gave rRNA inh HTS -40, Beta2AR agonist 7, UCH37 inh -2.3, HNF4A DNA FP -0.1, FGF22 binding inactive, Ecoli growth 0.7, rRNA inh HTS OD600 -53 and rRNA inh HTS RFP -1.8.
Screening CN(C)c1ccc(CN(C(=O)c2ccco2)C2CCS(=O)(=O)C2)cc1 (stereo unspecified) returned Beta2AR agonist -11, UCH37 inh 0.3, HNF4A DNA FP -1.3, Ecoli growth 0.75 and ALR inh 82*.
For CCOC(=O)N/N=C\c1ccc(OC(=O)c2ccco2)cc1 the results were rRNA inh HTS 14, Beta2AR agonist 7, HNF4A DNA FP -4.4, FGF22 binding inactive, ALR inh 7, rRNA inh HTS OD600 12 and rRNA inh HTS RFP 1.0.
`CCOC(=O)Cc1csc(NC(=O)Cc2ccc(Br)cc2)n1` gave rRNA inh HTS -25, Beta2AR agonist 2, UCH37 inh 1.8, HNF4A DNA FP -2.1, FGF22 binding inactive, Ecoli growth 0.69, ALR inh -4, rRNA inh HTS OD600 -24 and rRNA inh HTS RFP 2.1.
`COc1cc(OC)cc(-c2cc3ccc(OC)cc3cn2)c1` gave rRNA inh HTS -47, Beta2AR agonist 11, UCH37 inh -1.0, HNF4A DNA FP 0.8, FGF22 binding inactive, Ecoli growth 0.66, ALR inh 3, rRNA inh HTS OD600 -71 and rRNA inh HTS RFP -17.
Screening CCC(=O)N1CCN(c2ccccc2NC(=O)Cc2ccc(Cl)cc2)CC1 returned Beta2AR agonist -7, UCH37 inh 2.1, HNF4A DNA FP 2.1, Ecoli growth 0.67 and ALR inh -5.
For Cc1ccc(CNc2ccc3c(c2)ncn3C(C)(C)C)cc1 the results were rRNA inh HTS -4, Beta2AR agonist -1, UCH37 inh -1.3, HNF4A DNA FP 0.3, FGF22 binding inactive, Ecoli growth 0.64, ALR inh 89*, rRNA inh HTS OD600 -11 and rRNA inh HTS RFP 0.0.
For CCOC(=O)NN1C(=O)c2ccccc2NC1c1ccccn1 (stereo unspecified) the results were rRNA inh HTS 8, Beta2AR agonist -17, UCH37 inh -288, HNF4A DNA FP -1.5, FGF22 binding inactive, Ecoli growth 0.67, ALR inh -1, rRNA inh HTS OD600 -20 and rRNA inh HTS RFP -1.6.
Cc1cc(N2C(=O)C(=O)/C(=C(/O)c3ccc(Cl)cc3)C2c2cccc(Br)c2)no1 (stereo unspecified) was read as Beta2AR agonist -7, UCH37 inh 6.6, HNF4A DNA FP 0.8, Ecoli growth 0.68 and ALR inh 8.
O=C(CN1C(=O)c2ccccc2S1(=O)=O)Nc1ccc(S(=O)(=O)N2CCCCC2)cc1 was read as Beta2AR agonist -1, UCH37 inh 0.5, HNF4A DNA FP 0.0, Ecoli growth 0.76 and ALR inh -2.
CCCCN1C(=O)C(CC(=O)NC(c2ccccc2)c2ccccc2)CC(C(=O)N(C(C)C)C(C)C)=C1C (stereo unspecified) was read as rRNA inh HTS -32, HNF4A DNA FP -20, FGF22 binding inactive, rRNA inh HTS OD600 -36 and rRNA inh HTS RFP 2.8.
NC(=O)Cn1nnc(-c2ccccc2NC(=O)c2cnccn2)n1 was read as Beta2AR agonist 6, UCH37 inh -1.8, HNF4A DNA FP 1.5, Ecoli growth 0.69 and ALR inh -5.
